Vaccinia Venus: inhibitors of vaccinia virus (Venus reporter). Vaccinia virus Venus reporter expression, fluorescence. Potency, µM (highest dose often 36.5 µM), inactives show at the top dose activity change, negative = inhibition, actives largely listed as inhibitors. 330,000 tested, 0.46% active; active means well fitted inhibition curve with a large enough effect; inconclusive means small, poorly fitted or top-dose-only effect; inactive means no such curve, though single readings can be large or run the other way; tested in A549 cells; note: nearly all actives have a fitted effect of over 30% in size; inactives centre near -10
VACV mCherry inh: vaccinia inhibition (mCherry reporter). Vaccinia virus mCherry reporter infection, fluorescence; about a quarter of the inactives have no number. Potency, µM (series often up to 36.5 µM), for inactives: at the highest dose activity change, negative = inhibition, hits mostly inhibitors. 310,000 tested, 0.63% active. AID 720579; active = well fitted inhibition curve with a large enough effect; inconclusive = small, poorly fitted or top-dose-only effect; inactive = no such curve, though single readings can be large or run the other way; tested in A549 cells; note: nearly all actives have a fitted effect of over 35% in size; inactives centre near -10
* = called active by the depositor; i = inactive; ? = inconclusive; · = no result given; [ ] = remark or other dose. % is set by controls: 0 for no effect and ±100 for the full control effect; potency is the fitted concentration of half-maximal effect. Hits appear at their usual frequency; any-hit rate near 0.87%.

The line under a structure holds: Vaccinia Venus, VACV mCherry inh
CCOC(=O)c1c(NC(=O)COC(=O)Cc2n[nH]c(=O)c3ccccc23)sc(C(=O)N(C)C)c1C
→ -10.4%, i
Cc1cccc(C)c1NC(=O)Nc1nnc([C@H]2C[C@H](O)[C@@H](CO)O2)s1
→ 15.9%, i
CCCCC1=CC2=CC(=O)C(C)(OC(=O)CC)C(=O)C2=CO1 (centres undefined)
→ 28.5%, i
CCN(CC)c1nc(OCCNC(=O)Nc2ccccc2)nc(N(CC)CC)n1
→ 11.2µM*, ·
Cc1ccc(NC(=O)Cn2c(=O)n(CCC(=O)NCc3ccc4c(c3)OCO4)c(=O)c3sccc32)c(C)c1
→ -7.1%, -2.2%
NS(=O)(=O)c1ccc(CNc2nc(-c3cccnc3)nc3ccccc23)cc1
→ -9.0%, -18.1%
Cc1cccc(CSC2=NCCN2S(=O)(=O)c2ccc(F)cc2)c1
→ -7.2%, i
COc1cc(/C=C/C(=O)O)ccc1S(=O)(=O)N1CCCc2ccccc21
→ ?, i
COc1ccc(C(=O)N/C(=C\c2cn(C)c3ccccc23)C(=O)N2CCOCC2)cc1
→ -22.2%, ?
CNc1nc(NCc2ccccc2)c2ccccc2n1
→ -21.8%, -4.4%
COc1ccc(CNC(=O)Cn2nnc(-c3ccccc3F)n2)cc1
→ -7.4%[7.34 µM], -9.7%[7.34 µM]
CCOC(=O)C1CCN(/C=C2/C(=O)NC(=S)N(c3ccccc3F)C2=O)CC1
→ -4.4%, i
Cc1cc(NS(=O)(=O)c2ccc(NC(=O)COc3ccccc3Br)cc2)no1
→ 0.6%, -4.3%
CN(C)c1oc(-c2ccc(COc3ccccc3)o2)nc1C#N
→ -7.9%, -8.2%
CCOC(=O)C1=C(C(=O)OCC)N(CC2CCCCC2)CCC1=O
→ 0.2%, 2.3%
CCCCCCNCCn1cnc2c(N)ncnc21
→ -10.1%, -15.1%
COc1ccccc1C(=O)Nc1nc2nc(C)cc(=O)n2[nH]1
→ -7.1%, -0.5%
COCCNc1oc(-c2ccc(Cl)cc2)nc1C#N
→ -2.5%, -9.3%
COc1cccc(N2CCN(C(=O)c3cccn3-c3nnc(N4CCCC4)s3)CC2)c1
→ -14.2%, -13.8%
CCOC(=O)c1ccc(S(=O)(=O)N2CCN(C(=O)CSc3nc4ccccc4o3)CC2)cc1
→ -5.8%, 1.9%
O=S(=O)(Nc1ccc(N=Nc2ccc(O)c3ccccc23)cc1)c1ccccc1
→ -26.7%, ?
CCCCCC(=O)N1CCN(c2ccc(C(C)=O)cc2F)CC1
→ 1.8%, 2.4%
CC1=C(C(N)=O)C(c2cccs2)n2ncnc2N1 (centres undefined)
→ -12.1%, i
CCN(C[C@H]1N[C@@](C)(C(=O)OC)[C@H]2C(=O)N(C)C(=O)[C@@H]12)S(=O)(=O)c1ccc(C(F)(F)F)cc1
→ -14.2%, i
Cc1ccc(-c2ccc(C(=O)Nc3cccc(F)c3)o2)c2ccccc12
→ -21.9%, -3.0%
O=C(c1ccc2ccccc2c1O)N1CCCCC1
→ -5.5%, i
CC(OC(=O)c1ccc(S(=O)(=O)N2CCCCC2)cc1)C(=O)NC1CCCCC1C (centres undefined)
→ -6.0%, -10.0%
CCOC(=O)C1CCN(C(=O)C2CCN(C3=NS(=O)(=O)C(c4ccc(C)c(C)c4)=C3C)CC2)CC1
→ -7.0%, -9.4%
C/C=C(\C)C(=O)O[C@@H]([C@H](O)c1cc2ccc(=O)oc2cc1OC)C(C)(C)O
→ 2.4%, -8.1%
CC(C)CNc1nnnc2c1sc1nc(N3CCOCC3)c3c(c12)CCCC3
→ -13.2%, -7.8%
NS(=O)(=O)c1cccc(NC(=O)COC(=O)COc2ccc3ccccc3c2)c1
→ -1.1%, -9.9%
COc1ccccc1CNC(=O)CN(C)CC(=O)Nc1ccccc1Br
→ -10.2%, -23.1%
CCn1cc(C(C)NC(=O)Nc2ccccc2C(=O)OC)c(C)n1 (centres undefined)
→ -7.5%, -8.4%
O=C1C(Cc2cnc[nH]2)NC(=S)N1c1ccccc1 (centres undefined)
→ -7.3%, -18.4%
CCOc1ccccc1C(=O)Nc1c(NC)c2ccccc2oc1=O
→ -0.4%, -9.8%
CCCNc1cc(C)oc(=O)c1C(=O)CCC
→ -5.6%, -0.5%
Cc1ccc[n+](-c2[nH]c(=O)sc2/C=N/N=C(\[O-])c2cccnc2)c1
→ 3.4%, i
COc1ccc(CCC2(C)NC(=O)NC2=O)cc1 (centres undefined)
→ -4.2%, -1.5%
c1ccc(C2=NN(c3ccccc3)C(c3ccco3)C2)cc1 (centres undefined)
→ -2.7%, ?
COc1ccc(NC(=O)c2cc3nc(-c4ccccc4)cc(C)n3n2)cc1OC
→ -14.4%, -0.1%
Cc1ccc(C(=O)N/N=C\c2ccc(Br)o2)o1
→ -1.3%, -15.4%
Cc1coc2cc3oc(=O)c4c(c3cc12)CCCC4
→ -2.7%, -13.1%
CN(C(=O)c1cccc(NC(=O)Cc2ccc(NC(=O)C3CCCN(C(=O)C4CCCCC4)C3)cc2)c1)C1CCC1 (centres undefined)
→ -23.1%, ?
CC(C)c1nnc(NC(=O)CCC(=O)N2CCN(c3ccc(F)cc3)CC2)s1
→ -12.6%, i
O=C(NCc1ccccc1Cl)c1cc(=O)[nH]c2ccccc12
→ -4.6%, 1.0%
CNC(=S)N/N=C1\C(=O)c2cccc3cccc1c23
→ -14.1%, i
COC(=O)C1(S(=O)(=O)c2cccc3nsnc23)CC1
→ -0.4%, ·
OC(COCC1COc2ccccc2O1)CN1CCN(c2ccccc2F)CC1 (centres undefined)
→ -16.0%, ·
Cc1cccc(NC(=O)c2oc3ccc(S(=O)(=O)N4CCC5(CC4)OCCO5)cc3c2C)c1C
→ -21.6%, -14.2%
CC(C)(C)OC(=O)NCc1ccc(CNC(=O)c2nc[nH]c2C(=O)NCc2ccc(CNC(=O)OC(C)(C)C)cc2)cc1
→ ?, ?

(further entries)
The line under a structure holds: Vaccinia Venus, VACV mCherry inh
COc1ccc(NC(=O)c2ccc(NC(=O)N3CCSc4ncccc43)cc2)cc1
→ -5.3%, -20.9%
CC(C)(C)c1ccc(CN2C(=O)CSC2=O)cc1
→ -11.5%, i
NCCCNC(=O)Cn1c(=O)c2c3c(sc2n(Cc2ccccc2)c1=O)CCCC3
→ -20.2%, -2.7%
Cc1coc2c(C)c3oc(=O)c(CC(=O)NCCc4ccc(Cl)cc4)c(C)c3cc12
→ 3.6%, -9.0%
COc1ccc(C(=O)OCC(=O)Nc2c(C)cccc2C)c(OC)c1OC
→ -10.5%, -9.4%
O=C(NCC1CCCO1)c1nn2c(C(F)(F)F)cc(-c3cccs3)nc2c1Br (centres undefined)
→ -8.1%, -17.2%
Cc1ccc(C)c(N2CCN(C(=O)c3ccc(Nc4nc5ccccc5n5nnnc45)cc3)CC2)c1
→ -10.1%, -17.7%
COC(=O)C(NC(=O)c1ccccc1)(Nc1nccs1)C(F)(F)F (centres undefined)
→ -8.0%, ·
CC(C)NC(=O)CC(=O)N/N=C/c1cccs1
→ -5.0%, i
CC(=O)Nc1ccccc1C(=O)OCC(=O)c1ccccc1Cl
→ -9.2%, -5.3%
CC(C)(C)c1ccc(OCc2nc(-c3ccccn3)no2)c(Br)c1
→ -23.9%, -19.9%
CCOC(=O)CC1(c2ccc(OC)c(OC)c2)C(=O)c2ccccc2C1=O
→ -5.7%, -15.9%
Cc1ccc(-n2nc(CO)c(C(=O)NC(C)CCCc3ccccc3)n2)cc1 (centres undefined)
→ -8.8%, -5.4%
CC(OC(=O)C1CCN(c2ccc(C(F)(F)F)cn2)CC1)C(=O)NC1CCCCC1C (centres undefined)
→ -10.0%, -16.4%
COCCNC(=O)CCC(=O)N1Cc2cccc(OC)c2Oc2ncccc21
→ -3.6%, -5.2%
c1cnc(SCCOc2cccc3ccccc23)nc1
→ -18.3%, -16.7%
O=C(N/N=C/c1coc2ccccc2c1=O)c1cc(O)cc(O)c1
→ -0.9%, -21.1%
CCN(CC)CCCNC(=O)Cn1ncc2c3ccccc3n(Cc3ccccc3)c2c1=O
→ -6.1%, -13.8%
CCOc1ccc(S(=O)(=O)N2CCN(C(=O)CCOc3ccccc3C)CC2)cc1
→ ?, ?
CC(C)CC(=O)N/C(N)=N/c1nc2ccccc2o1
→ -6.0%, -12.4%
O=c1cc(-c2ccc(O)cc2)oc2c(O)c(O)c(O)c(O)c12
→ -26.1%, -29.4%
Cc1cccn2c(=O)c(C=O)c(N3CCN(C)CC3)nc12
→ -7.8%, i
Cc1ccc(N(CCC#N)C(=O)COC(=O)C2CCN(S(=O)(=O)c3ccc(C)c(C)c3)CC2)cc1
→ -6.5%, -22.2%
COc1ccc(CN(C)C2CCCCC2)c(C)c1C
→ -1.7%, -6.6%
Cc1cc(C(=O)Nc2sc3c(c2C#N)CCC3)no1
→ ?, -22.1%
COc1ccc(Nc2nccc(N(C)C)c2C#N)cc1
→ 3.4%, -4.2%
O=C(CSc1nnc2sc3ccccc3n12)NCc1ccc2c(c1)OCO2
→ -12.8%, -29.6%
Cc1c(NS(=O)(=O)c2cccc(C(=O)N3CCC(C(N)=O)CC3)c2)c(=O)n(-c2ccccc2)n1C
→ -16.6%, i
Cc1cc(Cn2nc(-c3ccccc3)cc2C(=O)NCc2cccc(C(F)(F)F)c2)on1
→ -24.6%, -12.4%
O=C1Nc2ccc(Br)cc2C1(O)Cc1ccncc1 (centres undefined)
→ -9.1%, ·
CC(=NNC(=S)N1CC2CCC(CC2)C1)c1ccncn1
→ 6.31µM*, 1.58µM*
Cc1ccccc1C(=O)Nc1nnc(S(=O)(=O)N2CCc3ccccc32)s1
→ 6.3%, -8.7%
CC(=O)c1ccc(N2CCN(C(=O)c3cc4c(s3)CCCC4)CC2)cc1
→ -13.7%, -4.0%
CN(C)C1(CNC(=O)COc2cccc(Cl)c2)CCCCC1
→ 6.5%, 13.5%
Cn1c(=O)c2sc3c(c2n(CC(=O)Nc2ccccc2)c1=O)COC(C)(C)C3
→ 0.4%, -1.4%
O=C(NC1=NCCS1)c1cc(-c2cccnc2)nc2ccccc12
→ -13.3%, -1.4%
COc1ccc(C(=O)Nc2ccc(S(=O)(=O)NC(C)=O)cc2)cc1[N+](=O)[O-]
→ -8.0%, -9.7%
CCN1CCN(c2nc3c(S(=O)(=O)c4ccc(Br)cc4)nnn3c3ccsc23)CC1
→ ?, ?
COC(=O)c1cccc(NC(=O)CN2C(=O)C3CCCCC3C2=O)c1 (centres undefined)
→ -11.1%, i
NC(=O)c1ccccc1N=Cc1cccnc1
→ -22.0%, -4.0%
COC(=O)c1sccc1S(=O)(=O)N(CC(=O)Nc1cc(C)ccc1C)c1ccc(C)c(C)c1
→ -16.1%, -12.4%
S=C(Nc1ccc(Cl)cc1Cl)Nn1cnnc1
→ -9.8%, -9.3%
Cc1ccc(C(=O)NC(NCc2ccco2)C(Cl)(Cl)Cl)cc1 (centres undefined)
→ -11.4%, -11.5%
Cn1c(=O)c2[nH]c(CCCc3ccc([N+](=O)[O-])cc3)nc2n(C)c1=O
→ -6.9%, -1.7%
CNS(=O)(=O)c1cccc(C(=O)OCC(=O)N2c3ccccc3CC2C)c1 (centres undefined)
→ -9.8%, -15.6%
COC(=O)c1cc2occc2n1CC(=O)N(C)C1CCCCC1
→ -11.5%, -1.6%
Cc1ccc(CS(=O)(=O)CCC(=O)NCCN2CCCC2)cc1
→ -3.8%, i
O=C1C=C(c2ccc(Oc3ccccc3)cc2)C[C@@H](c2ccc3c(c2)OCO3)C1
→ -6.5%, -3.0%
Cc1ccnc(N2CCC(C(=O)NCc3ccccc3F)CC2)n1
→ -5.4%, -9.8%
CSc1nc2ccc(NC(=O)C3CC(=O)N(Cc4ccccc4)C3)cc2s1 (centres undefined)
→ -17.9%, -28.7%

Other entries follow:
The line under a structure holds: Vaccinia Venus, VACV mCherry inh
COc1ccc(NC(=O)CSc2ccc3nnc(CCNC(=O)c4ccccc4)n3n2)cc1OC
→ -7.0%, i
CCc1ccc(Nc2nnc(-c3cc4cc(OC)ccc4oc3=O)s2)cc1
→ -17.2%, -10.8%
C#CCOCCOCCOCCNc1nc(N2CCN(C(=O)[C@H]([C@@H](C)O)n3cc(CCCCN)nn3)CC2)nc(N2CCN(C(=O)[C@H](C)n3cc(CCCN=C(N)N)nn3)CC2)n1
→ -9.1%, i
Cc1ccc(S(=O)(=O)NCC(=O)NCC(=O)N2CCC(C)CC2)cc1
→ -4.3%, -10.2%
COc1ccc(N2C(=O)[C@@H]3C[C@H]2CN3Cc2ccc3nccnc3c2)cc1Cl
→ -10.5%, -17.0%
O=C(CCc1ccccc1)NC(NC(=S)Nc1ccc(Br)cc1)C(Cl)(Cl)Cl (centres undefined)
→ ?, -23.0%
CCOC(=O)C1CCN(C(=O)CNC(=O)OC(C)(C)C)CC1
→ -3.5%, -16.8%
O=C1NC[C@@H](CCCCN2C[C@H](Cc3ccc(O)cc3)N(CC3CCCCC3)C(=O)C2=O)N(Cc2ccccc2)C1=O
→ -4.3%, -10.7%
COc1ccc(NC(=O)Nc2ccccc2F)cc1Cl
→ -23.1%, -3.9%
Cc1ccc(-n2ncc3c(N4CCN(C)CC4)ncnc32)cc1
→ 1.2%, -7.3%
COc1ccc(-c2nc3ccccc3c(=O)o2)cc1
→ -21.1%, -0.3%
Cc1c(Cl)cccc1NC(=O)CSc1nc(=O)n(CCCN2CCOCC2)c2c1CCCC2
→ -21.3%, ?
CC12CCC(C(N)=O)(c3nc4ccccc4nc31)C2(C)C (centres undefined)
→ -3.9%, ·

Given in markdown: 2 of the compounds above.
| Structure | Vaccinia Venus | VACV mCherry inh |
| --- | --- | --- |
| Cc1coc2c(C)c3oc(=O)c(CC(=O)NCCc4ccc(Cl)cc4)c(C)c3cc12 | 3.6% | -9.0% |
| O=C(c1ccc2ccccc2c1O)N1CCCCC1 | -5.5% | i |
